Compound activity (PubChem)
PrP UTR inh: inhibition of PrP 5' UTR reporter expression; 340,000 tested, 0.35% active; cell-based PrP 5' UTR mRNA reporter, plate reader; inhibition, % (test concentration not listed);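 active means every replicate at 50% or more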;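 further: 0 = median of the neutral control wells; tested in H4 reporter cells; numbers are from one replicate; inactives centre near -14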
ugtP null kill: compounds lethal to S. aureus RN4220 ugtP deletion mutant. AID 1259309. growth inhibition, % (test concentration not listed). OD600 growth, 16 h; some inactives read as strong as hits. 330,000 tested, 0.54% active;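 active means z-score under -3 and OD600 up to 0.15 on both plates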;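 further: plate controls were untreated wells for no effect and antibiotic for full effect; wells of about 80 µL received 100 nL stock; the first replicate is given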
Mtb hypoxia rep: inhibitors of hypoxia-regulated fluorescent reporter in Mycobacterium tuberculosis; 300,000 tested, 0.1% active; fluorescence inhibition, % (no concentration beside the values); AID 1159583; M. tuberculosis hypoxia-regulated fluorescent reporter, fluorescence;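 active means 35 to 45% if threefold the growth effect, above 45% if 1.5-fold the growth effect; inactive means the rest, general growth blockers included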;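 further: wells of about 50 µL received 100 nL stock; 0% = vehicle wells and 100% = reference inhibitor wells; whole bacteria with a GFP reporter of the hypoxia response; strong numbers were not always called active; many hits fall short of the cut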
Autofluor counter: counter-screen for toxin protease inhibitors: compound fluorescence | compound autofluorescence counterscreen, microsphere flow cytometry; stronger effect = higher value | fluorescence intensity (concentration not given with the values) | 360,000 tested, 3.1% active | AID 624483;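 active means at least 3 SD above the mean of all compounds, about 16000 in these data; inconclusive means too few beads counted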;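 further: 100 nL of 1 mM stock went into each well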
BJeLR viability: kills HRASV12-expressing BJeLR cells. BJeLR (HRASV12) viability, CellTiter-Glo ATP luminescence, 48 h; reference of the scale not given here. inhibition, % (no concentration beside the values). 300,000 tested, 0.17% active;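 active means replicate mean above 50%; inconclusive means above 50% but judged a plate artefact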;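 further: 50 nL library stock added to about 25 µL; numbers are from one replicate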
Sa RN4220 lethal: kills Staphylococcus aureus RN4220. S. aureus RN4220 growth, OD600, 16 h. inhibition, % (concentration not given with the values). 330,000 tested, 0.33% active. AID 1259311;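 active means z-score of -3 or lower and OD600 up to 0.18 on both plates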;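 further: plate controls were untreated cells for no effect and reference antibiotic for full effect; stock transfer was 100 nL into about 80 µL; one replicate is shown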
Mtb hypoxia rep growth: second read-out of Mtb hypoxia rep, no call of its own (marks repeat the call); growth inhibition, %; measured here: M. tuberculosis growth (absorbance);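 0% = vehicle and 100% = reference antibiotic; read after six days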
Active calls of the source: *; u = inconclusive; x = not tested or not shown; & = joins results of further samples.

SMILES	PrP UTR inh	ugtP null kill	Mtb hypoxia rep	Mtb hypoxia rep growth	Autofluor counter	BJeLR viability	Sa RN4220 lethal
CCOC(=O)N1CCN(c2ncnc3c2oc2nc(C(C)C)c4c(c23)CCC4)CC1	-20	3	2	16	20792*	-9	7.6
CCOc1ccc(OCCn2c(=S)[nH]c3ccccc32)cc1	-8	-1	6	0	x	5	1.8
Cn1c(=S)[nH]c2sc3c(c2c1=O)CCC(C(C)(C)C)C3 (centres undefined)	-35	x	x	x	2967	8	x
CCOc1ccc(N2C(=O)CC(N(CCc3ccc(OC)cc3)C(=O)/C=C/C(=O)O)C2=O)cc1 (centres undefined)	5	3	0	3	3247	6	6.5
NC(=O)c1ccsc1NC(=O)COC(=O)Cc1ccsc1	-14	-5	6	5	9403	-2	1.8
Cc1cccc(NC(=O)CN2CCN(CC(=O)NCc3ccc(Cl)cc3Cl)CC2)c1C	3	-3	-10	5	6030	x	-1.0
C/C(=N\NC(=S)NC1CCCCC1)c1ccc(O)cc1	-31	x	x	x	3219	-6	x
c1ccc(Nc2ccccc2Nc2ccccn2)nc1	-24	-3	3	10	20926*	1	3.4
Cc1noc(NS(=O)(=O)c2ccc(N/C=C\C(=O)c3cccs3)cc2)c1C	-16	10	23	22	3199	-3	6.3
CCCCCOc1ccc(NC(=O)CSc2cccc3cccnc23)cc1	-12	0	12	0	2533	-4	-10
COC(=O)NC1c2ccccc2Oc2ccccc21	-15	3	0	9	3955	9	2.3
COc1ccc(OCC(O)CN2CCNCC2)cc1 (centres undefined)	-10	4	12	-3	4068	2	3.4
CCOC(=O)C1(CCOc2ccccc2)CCN(Cc2ccc(O)cc2)CC1	-20	7	8	7	3854	-3	-1.1
CNc1nc(N)c([N+](=O)[O-])c(Nc2cccc(F)c2)n1	-1	7	11	5	x	7	3.3
Cc1ccc2c(CC(=O)NC3CCCc4ccccc43)coc2c1 (centres undefined)	-16	3	3	8	1993	-9	4.5

Structural class, the compounds so far with two or more sulfur atoms (3)
SMILES	PrP UTR inh	ugtP null kill	Mtb hypoxia rep	Mtb hypoxia rep growth	Autofluor counter	BJeLR viability	Sa RN4220 lethal
Cn1c(=S)[nH]c2sc3c(c2c1=O)CCC(C(C)(C)C)C3 (centres undefined)	-35	x	x	x	2967	8	x
NC(=O)c1ccsc1NC(=O)COC(=O)Cc1ccsc1	-14	-5	6	5	9403	-2	1.8
Cc1noc(NS(=O)(=O)c2ccc(N/C=C\C(=O)c3cccs3)cc2)c1C	-16	10	23	22	3199	-3	6.3

More results follow:
SMILES	PrP UTR inh	ugtP null kill	Mtb hypoxia rep	Mtb hypoxia rep growth	Autofluor counter	BJeLR viability	Sa RN4220 lethal
Cc1ccc(C(=O)NNC(=O)c2ccc(-n3cncn3)c([N+](=O)[O-])c2)cc1	-6	11	0	4	5813	-15	0.7
CC1CCCN(C(=O)c2ccc(Cl)c(S(=O)(=O)N3CCCCCC3)c2)C1 (centres undefined)	-38	2	10	7	3522	x	5.9
COc1ccc(-c2cc(CNS(=O)(=O)c3ccc(F)cc3)on2)cc1	-7	8	3	-7	3176	-1	1.5
Cc1ccc(N2CCN(CCc3nc4cc(NS(C)(=O)=O)ccc4n3C)CC2)cc1	-21	7	10	10	3108	2	4.9
Cn1c(=O)c2c(nc(N3CCCCC3)n2CCCNC2=NCCCC2)n(C)c1=O	-19	3	x	x	2171	-3	0.9
COc1ccc(CCCNC(=O)C2CCC(=O)N(Cc3ccccc3F)C2)cc1 (centres undefined)	-10	7	6	1	5578	-9	1.7
CCOC(=O)C1(CCOC)CCN(Cc2cccc(OCc3ccccc3)c2)CC1	13	4	0	9	3997	7	1.8
CCCCCc1nnc(NS(C)(=O)=O)s1	-21	-1	5	-12	2600	3	-3.7
Cc1ccc(NC(=O)c2nc[nH]c2C(=O)NCCCCCNC(=O)OC(C)(C)C)cc1	0	-19	1	7	3027	x	6.8
Cc1cc(C2(c3cc(C)c(NC(=O)CN4CCOCC4)c(C)c3)CCCCC2)cc(C)c1NC(=O)CN1CCOCC1	x	-1	-4	4	x	4	11
O=C(NCc1cccc(F)c1)c1cccc2c1C(=O)c1ccc(N3CCC(Cc4ccccc4)CC3)cc1S2(=O)=O	-19	1	-3	17	7745	x	4.6
COc1cccc(/C=C(/C#N)c2ccc(Cl)cc2)c1OCc1cccc(C(=O)O)c1	-17	38	8	2	4148	0	27
COc1ccc(CCN(C(=O)c2snc(C(N)=O)c2N)C(C)C(=O)NC2CCCCC2)cc1OC (centres undefined)	10	-1	2	11	6577	1	2.9
Cc1ccc(CN2CC(C(=O)NCCCSc3ccccc3)CC2=O)cc1 (centres undefined)	-19	1	-11	-4	4578	-4	2.4
Cc1ccc(COc2ccc(Br)cc2/C=N/O)cc1	-79	x	x	x	3992	2	x
COc1ccc(C(=O)/C=C/C(=O)N(Cc2ccc(F)cc2)C(C(=O)NC2CCCCC2)c2ccncc2)c(O)c1 (centres undefined)	-6	x	x	x	9382	6	x
CN1C(=O)N(CC(=O)N2CCN(S(=O)(=O)c3ccc4c(c3)CCC4)CC2)C(=O)C12CCCCC2	-4	4	0	2	6509	x	3.5
Cc1ccc(OCC(=O)Oc2c(C)cccc2C)cc1C	-13	14	17	5	2989	8	3.5
COc1ccc(NC(=O)COC(=O)C2CC(=O)N(c3ccc(OC(C)C)cc3)C2)cc1 (centres undefined)	-16	13	14	6	3550	-12	1.1
Cc1c(C(=O)Nc2nc3ccccc3[nH]2)cccc1[N+](=O)[O-]	-42	-4	2	1	2639	-9	16
COc1ccc2c(C=NNc3ccc(C(=O)O)cc3)c[nH]c2c1	x	5	3	-3	x	x	2.8
O=C(NCCNC(=O)c1cc(Cl)ccc1Cl)c1ccccn1	-12	0	1	3	6519	5	1.3
O=C(CNC(=O)N1CC(=O)Nc2ccccc21)NCCc1cccc(F)c1	-8	4	-5	-5	4194	1	-1.6
NC(=O)C1CCN(C(c2ccccc2Cl)c2nnnn2CC2CCCO2)CC1 (centres undefined)	-35	3	x	x	2780	-2	5.3
CCCN1CCN(C(=O)c2ccc(CS(=O)c3ccc(Cl)cc3)o2)CC1 (centres undefined)	-27	11	-2	0	6021	0	2.8
CCN(C(=O)c1ccc(Cl)cc1[N+](=O)[O-])c1ccccc1C	-11	5	7	10	4534	-10	9.2
COc1ccc(/C=C2\C(=N\O)C3CCN2CC3)cc1	-18	x	x	x	3448	-6	x
COC(=O)CSc1nc(SCc2ccccc2Cl)nc2c1CCCC2	-13	8	-2	12	3145	-2	0.2
COc1ccc(CSc2nc(C)cc(=O)[nH]2)cc1Br	-11	-10	-7	-6	23006*	0	-3.9
CCOC1OC(C(=O)NCc2nc3ccccc3[nH]2)=CC(c2ccccc2)C1CCCO (centres undefined)	x	-4&-6	-1&-3	4&-2	x	x	1.3&-2.7
CC(OC(=O)c1ccc(Cl)c(S(=O)(=O)Nc2ccc(F)cc2)c1)C(=O)NC(N)=O (centres undefined)	3	2	0	-7	4224	5	7.0
O=C(c1cc(F)ccc1F)C1CCCN(C(=O)c2cccs2)C1 (centres undefined)	-25	-2	7	12	4323	6	1.3
CC(OC(=O)COc1ccccc1[N+](=O)[O-])C(=O)Nc1ccc(N2CCOCC2)cc1 (centres undefined)	-20	-12	-3	-2	4170	3	-2.4
CCn1cc(C(=O)NCc2ccccc2Cl)cn1	-22	9	4	-5	2098	-5	2.7
COc1ccc(OC(C)C(=O)N2CCCc3ccccc32)cc1 (centres undefined)	-1	-1	9	6	4440	-1	3.9
c1n[nH]c(NC2=NCCC2)n1	-13	-4	0	8	9124	-14	1.8
O=C1CN(C(=O)c2ccccc2C(=O)O)c2ccccc2N1	6	6	9	5	3318	9	3.3
CCc1cc(=O)oc2c(C)c(OCC(=O)N3CCC[C@@H]3C(=O)O)ccc12	-38	-8	x	x	4108	2	5.5
Cc1nn(Cc2ccccc2)c(C)c1C(=O)OCC(=O)Nc1ccccc1SCC#N	-24	-1	19	2	11497	15	0.9
c1ccc(CNc2c3c(nc4ncnn24)CCC3)cc1	-16	-1	4	8	4575	2	4.0
Cc1ccc(CSc2nc3ccccc3c(=O)n2Cc2ccco2)cc1	-16	35	x	x	4541	4	-8.1
CN(C)C(CNC(=S)Nc1ccccc1)c1cccnc1 (centres undefined)	-6	3	10	3	2391	-8	3.0
CC(C)CNC(=O)CO/N=C/c1ccccc1Cl	2	x	x	x	4257	-6	x
C=CCSc1nc(=O)n2ccc(C)cc2n1	-13	-9	9	3	4860	5	3.0
O=S(=O)(NN=Cc1cccc(OC2CSC2)c1)c1ccccc1	x	-10	0	1	x	x	9.0
Cc1ccc(CN(c2ccc(C(=O)NCc3cccnc3)cc2)S(C)(=O)=O)cc1	-7	16	3	0	8482	15	3.3
Cc1ccc(OCCOc2ccc(Br)cc2)c([N+](=O)[O-])n1	-55	4	4	0	2047	-2	4.4
O=C1CC(c2ccccc2Cl)Cc2c1cnn2-c1nc2ccccc2s1 (centres undefined)	x	11	-4	-21	x	8	-6.1
CC(C)(C)NC(=O)C(c1ccccc1)N(Cc1cccs1)C(=O)c1csnn1 (centres undefined)	-16	-4	-1	7	8966	-1	3.9
O=C(c1cccc(S(=O)(=O)N2CCc3ccccc32)c1)N1CCN(c2ccccc2)CC1	-4	-1	7	-2	4833	x	2.5
COc1cccc(NC(=O)N2CCN(c3nnnn3-c3ccccc3)CC2)c1	-21	5	-6	6	4255	-13	1.9
COc1ccc(C(=O)CSc2nc3ccc([N+](=O)[O-])cc3[nH]2)cc1	-7	-6	8	7	2131	0	17
COC(=O)c1cc(NC(=O)CC2NCCNC2=O)cc(C(=O)OC)c1 (centres undefined)	-9	3	6	1	10508	7	1.2
CC(=O)Oc1ccc(C=NNC(=O)c2cc3c(ccc4ccccc43)o2)cc1	x	-17	0	8	x	x	-3.1
Cc1cc(Nc2nc3ccccc3nc2Cl)n(-c2ccccc2C)n1	-16	-3	17	7	5650	14	0.1
COc1cc(CCCN2C(=O)C(=O)NC[C@@H]2CCCCN)cc(OC)c1OC	2	x	x	x	3913	8	x
COc1cccc(C2=NOC(C(=O)N3CCC4(CC3)OCCO4)C2)c1 (centres undefined)	-55	8	0	-1	11380	4	0.7
CCCCC1(C(=O)OCC)CC(CN2CCOCC2)OC1=O (centres undefined)	-12	3	6	6	3122	13	0.1
COc1cc(C(=O)N2CCN(S(=O)(=O)c3cccc(F)c3)CC2)ccc1OCC(=O)N1CCOCC1	13	-2	-7	3	u	-13	-3.4
Cn1c(=O)oc2cc(S(=O)(=O)N3CCc4ccccc43)ccc21	-6	4	14	15	4500	21	2.9

Pulled by compound from the entries so far, 2 records:
SMILES	PrP UTR inh	ugtP null kill	Mtb hypoxia rep	Mtb hypoxia rep growth	Autofluor counter	BJeLR viability	Sa RN4220 lethal
COc1cccc(NC(=O)N2CCN(c3nnnn3-c3ccccc3)CC2)c1	-21	5	-6	6	4255	-13	1.9
COC(=O)c1cc(NC(=O)CC2NCCNC2=O)cc(C(=O)OC)c1 (centres undefined)	-9	3	6	1	10508	7	1.2

New compounds follow:
SMILES	PrP UTR inh	ugtP null kill	Mtb hypoxia rep	Mtb hypoxia rep growth	Autofluor counter	BJeLR viability	Sa RN4220 lethal
COc1ccc(-c2cccc(NC(=O)c3ccc4c(c3)OCO4)c2)nn1	1	4	2	-3	u	-3	3.1
CC1CCN(CCOCCOc2ccccc2-c2ccccc2)CC1	-22	8	17	11	2120	0	5.3
O=C(NCC1CCCO1)C1CCN(c2ccc(S(=O)(=O)N3CCCC3)cc2)CC1 (centres undefined)	-18	1	8	21	8281	-8	5.1
O=C(N/N=C/c1cccc(C(F)(F)F)c1)c1ccc(O)cc1	-18	x	x	x	3358	4	x
CCOC(=O)C1(Cc2cccc(F)c2)CCN(C(=O)c2ccoc2C)CC1	-34	6	9	15	4659	16	12
COC(=O)c1nn(-c2ccccc2)c(Sc2ccccc2)c1/C=N/O	-7	x	x	x	2505	9	x
CC(C)N1CCC(N2CCN(CCCc3ccccc3)CC2CCO)CC1 (centres undefined)	-3	1	4	7	4770	-3	-1.1
N#CC1=C(Nc2ccccc2Cl)SC(c2ccccc2O)NC1=O (centres undefined)	-25	-4	3	4	3917	3	4.5
O=C(Nc1ccc(F)cc1)C(c1ccccc1)N1CCN(CC(=O)N2CCCC2)CC1 (centres undefined)	-25	4	5	1	3392	x	-2.4
O=C(COc1ccc(C=NNS(=O)(=O)c2ccccc2)cc1)Nc1ccc(F)cc1	x	-7	18	15	x	x	1.3
CN(c1ccccc1C(=O)O)S(=O)(=O)c1ccc2[nH]c(=O)[nH]c2c1	-13	4	-7	3	3874	5	3.8

This is a random part of the collection; any-hit rate near 4%.
